FEN1 inh – human FEN1 inhibition | P39748 | Recombinant FEN1 flap cleavage, fluorescence, 15 min | Potency, µM (doses to about 114 µM), for inactives: at the highest dose activity change, negative = inhibition, hits mostly inhibitors | actives 0.35% (n = 390,000); note: nearly all actives have a fitted effect of over 65% in size
Target sequence (P39748 whole entry, looked up): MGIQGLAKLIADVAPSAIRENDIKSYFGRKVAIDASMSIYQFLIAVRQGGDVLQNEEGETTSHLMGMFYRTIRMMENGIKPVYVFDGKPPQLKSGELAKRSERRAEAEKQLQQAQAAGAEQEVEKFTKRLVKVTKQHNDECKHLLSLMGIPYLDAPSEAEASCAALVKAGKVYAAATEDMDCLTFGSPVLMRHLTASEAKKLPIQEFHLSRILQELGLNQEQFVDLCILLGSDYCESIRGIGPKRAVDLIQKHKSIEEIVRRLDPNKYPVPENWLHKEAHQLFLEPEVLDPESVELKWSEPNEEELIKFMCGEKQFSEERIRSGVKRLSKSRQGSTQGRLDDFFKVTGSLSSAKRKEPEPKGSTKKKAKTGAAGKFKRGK
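With each library titrated from low to high concentration, compounds met 10 nM FEN1 for 15 min at room temperature before 50 nM substrate was added; readings at 0 and 15 min fed four-parameter Hill curve fits.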
GCN5L2 inh – inhibitors of human GCN5L2 histone acetyltransferase; Q92830; GCN5L2 HAT assay, ThioGlo1 CoA-SH fluorescence; Potency, µM (titrated, usually from 58.9 µM), without a hit: top-dose activity change, negative = inhibition, actives largely listed as inhibitors; actives 0.21% (n = 390,000); AID 504327
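qHTS, 1536-well. 20nM enzyme, pH 7.5 HEPES/EDTA/Tween-20 buffer; 15 min compound preinc., RT. Start: 75uM H3(1-25), 70uM AcCoA, 50uM ThioGlo1. Read Ex340/Em540 at t=0 (autofluorescence flag) and t=20 min.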
Active calls of the source: *; u = inconclusive; x = no result given; & = joins results of further samples; [ ] = dose if it differs, or a comment. Calls come from the whole dose curve; as a rule, active = well fitted curve in the direction sought with a large enough effect; inconclusive = small, poorly fitted or top-dose-only effect, or another doubt; inactive = no such curve, though single readings can be large; an effect the other way counts as inactive or inconclusive. % is set by controls: 0 for no effect and ±100 for the full control effect; potency is the fitted concentration of half-maximal effect. This is a subset; most or all hits stand in other tables.

FEN1 inh	GCN5L2 inh	canonical_smiles
-15%	-4%	c1ccc(-n2ncc3c(N4CCCCC4)ncnc32)cc1
-14%	3%	Cc1cc(C)nc(NCC(O)COc2ccccc2C)n1 (configuration not stated)
-3%	0%	Cc1cccc(NC(=O)N2CCCCCC2)c1
1%	-5%	O=C(O)CSc1nnc(-c2ccncc2)n1Cc1ccccc1
-3%	-7%	CCOC(=O)c1nnn2c1nc(SCC(C)=O)c1ccccc12
4%	-19%	CCOP(=O)(OCC)C(Nc1ccccn1)c1ccc(F)cc1 (configuration not stated)
50%	-38%	Cc1ccc2c(c1)N(C(=O)CCC(=O)NCCCN1CCN(C)CC1)CCO2
-1%	1%	CCCc1nc2c(=O)[nH]c3ccccc3c2o1

Full records from above. Order of values: FEN1 inh, GCN5L2 inh
CCOP(=O)(OCC)C(Nc1ccccn1)c1ccc(F)cc1 (configuration not stated) is listed with 4%, -19%
Cc1cccc(NC(=O)N2CCCCCC2)c1 is listed with -3%, 0%
Cc1cc(C)nc(NCC(O)COc2ccccc2C)n1 (configuration not stated) is listed with -14%, 3%
O=C(O)CSc1nnc(-c2ccncc2)n1Cc1ccccc1 is listed with 1%, -5%
c1ccc(-n2ncc3c(N4CCCCC4)ncnc32)cc1 is listed with -15%, -4%

Other structures
FEN1 inh	GCN5L2 inh	canonical_smiles
-2%	-4%	COc1ccccc1-c1cn[nH]c1-c1ccc(O)cc1O
-15%	-20%	O=S(=O)(c1cccs1)N1CCN(CCOc2ccccc2)CC1
10%	-2%	O=C(CSc1nnc(C2CCCCC2)o1)N1CCCCC1
-18%	-5%	CCN(CC)CCn1c(=S)[nH]c2cc3c(cc2c1=O)OCO3
1%	-2%	CC1(c2ccccc2)NC(=O)N(CC(=O)Nc2ccc(C(N)=O)cc2)C1=O (configuration not stated)
-4%	-17%	O=C1C2C3C=CC(C4CC34)C2C(=O)N1/N=C/c1c[nH]c2ccccc12 (configuration not stated)
x	-19%	Cc1nc(NC2=NCN(CCc3ccccc3)CN2)nc2ccccc12
-1%	0%	CCN(CC)C(=O)CSc1nnc(COc2ccccc2)n1CC
0%	-6%	COc1ccc(/C=N/NC(=S)Nc2cc(S(=O)(=O)N3CCOCC3)ccc2N2CCOCC2)cc1O
-8%	-3%	COc1cccc(COC(=O)c2cc(S(=O)(=O)N3CCCCC3)ccc2N2CCOCC2)c1OC
-4%	5%	COc1ccc(CCN2C(=O)C3C4CC(C5C(C(=O)O)=NOC45)C3C2=O)cc1OC (configuration not stated)
-13%	2%	Cc1ccc(-c2noc(CCC(=O)NC3CCCc4ccccc43)n2)cc1 (configuration not stated)
1%	8%	O=C(NCC1(c2ccccc2)CCOCC1)c1cccs1
3%	x	CCCC(=O)Nc1ccc(Cl)c(NC(=O)c2ccc(Br)o2)c1
1%	-2%	COc1ccc(-c2[nH]ncc2/C=N/NC(=O)c2cc(Br)ccc2O)c(OC)c1
-3%	-10%	CC(=O)c1ccc(N2CCN(C(=O)CCS(=O)(=O)c3ccc4c(c3)NC(=O)CS4)CC2)cc1
-4%	-6%	CCC(C)OC(=O)n1ccc(C(=O)Nc2nccs2)n1 (configuration not stated)
4%	-5%	Cc1cc(-c2n[nH]c(=S)n2-c2ccccc2C)cs1
5%	2%	Cc1cc(O)c(C(C)C)cc1NC(=O)c1ccccc1Cl
7%	u	CCCCC(=O)N1CCN(c2nc3ccc(Cl)cc3s2)CC1
-3%	0%	CCOC(=O)Cc1csc(NC(=O)c2sc3nc4ccc(C)cc4cc3c2N)n1
-1%	-3%	CCOc1cc(S(=O)(=O)n2ccc(C)n2)ccc1Br
-10%	1%	COc1ccc(CCNC(=O)CNCC2CCCCC2)cc1OC
-1%	-1%	COc1ccc(N2CCN(CCNC(=O)CCNS(=O)(=O)c3cccs3)CC2)cc1
1%	-3%	C=CCN(CC=C)CC(O)CN(c1cc([N+](=O)[O-])ccc1OC)S(=O)(=O)c1ccccc1 (configuration not stated)
x	-22%	OCC(O)CO
0%	-17%	COc1ccc(C(=O)NC(C)c2cc(OC)c(OC)cc2Br)cc1 (configuration not stated)
-15%	-7%	O=C(NCc1ccccc1)Nc1cccn(Cc2c(F)cccc2Cl)c1=O
-8%&-3%	-6%&-8%	CCCCOc1ccc(Cn2c(=O)oc3ccccc32)cc1
-19%	-4%	Cc1ccc(S(=O)(=O)NCc2nc3ccccc3c(=O)n2N)cc1
-15%	-8%	COc1ccccc1C(=O)OCC(=O)Nc1ccccc1OC(F)F
-1%	-6%	COc1ccc(C(=O)N2CCn3c(C)ccc3C2C)cc1 (configuration not stated)
2%	-4%	CCc1ccc(NC(=O)CSc2nc3ccccc3c(=O)n2CCCC(=O)NCCCN2CCOCC2)cc1
-3%	-4%	O=C(C(=O)N1CCCc2ccccc21)c1cn(CC(=O)N2CCOCC2)c2ccccc12
18%	1%	O=C(Nc1ncc2c(n1)-c1ccccc1CC2)c1cccs1
-12%	-5%	O=C(NCc1cccs1)C1CCCN1C(=O)Nc1ccc(F)cc1 (configuration not stated)
2%	-11%	O=C(O)/C=C/C(=O)N(CC1CCCO1)C1CC(=O)N(c2c(Cl)cccc2Cl)C1=O (configuration not stated)
0%	22%	COCCNC(=O)CN(C(=O)Cn1nnc2ccccc21)c1cc(C)cc(C)c1
0%	-1%	COc1ccc(/C=C(\C#N)C(=O)NCCCn2ccnc2)cc1
2%	-17%	COc1cc(C(=O)OC2CCOC2=O)cc(Cl)c1OC (configuration not stated)
-7%	-6%	O=C(NCCO)C1CCN(S(=O)(=O)c2ccc(F)cc2)CC1
1%	-15%	COc1ccc(CNC(=O)CN(c2ccc(OC)c(Cl)c2)S(=O)(=O)c2ccc(C)cc2)cc1
5%	-37%	CNC(=O)COc1coc(CN2CCN(c3ccccc3OC)CC2)cc1=O
-18%	0%	CCOC(=O)COn1c(=O)c(-c2ccc(Cl)cc2)[n+]([O-])c2ccccc21
-17%	-5%	CC1=C/C(=C\C=C(C#N)C#N)N(C)c2ccccc21
2%	-8%	C#CCNc1c2c(nc3ncnn13)CC(C)CC2 (configuration not stated)
16%	-7%	Cn1cccc1/C=C1\SC(=O)N(c2ccccc2)C1=O
-17%	-22%	Fc1ccc(Cn2nnnc2C(c2ccc(Cl)cc2)N2CCSCC2)cc1 (configuration not stated)

An excerpt from above in order of their number in FEN1 inh, high to low.
| smiles | FEN1 inh |
| --- | --- |
| Cc1cc(-c2n[nH]c(=S)n2-c2ccccc2C)cs1 | 4% |
| CCCC(=O)Nc1ccc(Cl)c(NC(=O)c2ccc(Br)o2)c1 | 3% |
| O=S(=O)(c1cccs1)N1CCN(CCOc2ccccc2)CC1 | -15% |
| Fc1ccc(Cn2nnnc2C(c2ccc(Cl)cc2)N2CCSCC2)cc1 (configuration not stated) | -17% |

More results follow:
FEN1 inh	GCN5L2 inh	canonical_smiles
-12%	20%	Cc1cc(C)nc(N2CCC(C(=O)NNC(=O)Cc3ccccc3)CC2)n1
0%	-31%	O=C(NC(Cc1ccccc1)C(=O)O)/C(=C\c1ccc(Cl)cc1)NC(=O)c1ccco1 (configuration not stated)
-8%	-6%	C/C(=N\NC(=O)c1nnn(-c2nonc2N)c1CN1CCCCC1)c1ccccc1O
10%	-5%	N#CC(C#N)=Cc1cc2ccccc2nc1N1CCOCC1
4%	-3%	O=C(O)/C=C/c1cccc(NC(=O)c2ccccc2)c1
-4%	-5%	C=C(C)C1CC=C(C)/C(=N/Nc2ccccc2[N+](=O)[O-])C1 (configuration not stated)
-9%	3%	CCOc1cc(CNCCCN2CCOCC2)cc(Cl)c1OCC(=O)NC(C)(C)C
-10%	1%[0.501 µM]	CCOC(=O)c1ccc(-n2c(C)nc3c(cnn3-c3ccccc3Cl)c2=O)cc1
14%	-2%	O=C(NCc1ccc2c(c1)OCO2)c1c(Cl)cccc1Cl
-11%	-2%	CCOC(=O)/C(N=Nc1ccc2c(c1)OCO2)=C(\C)O
-4%	1%	O=C(CNC(=O)c1ccco1)OCC(=O)c1ccc2ccccc2c1
10%	2%	Nc1nonc1OCCc1ccccc1
-2%	-8%	Cc1ccc(C23CC4CC(CC(C(=O)NC(C)C(N)=O)(C4)C2)C3)cc1 (configuration not stated)
-14%	-1%	Cc1ccsc1C(=O)NC(C)c1ccc2c(c1)OCO2 (configuration not stated)
3%	-3%	O=C(NCCc1ccccn1)c1cccc(S(=O)(=O)N2CCc3ccccc32)c1
5%	1%	O=C(CCc1nnc(Cc2c[nH]c3ccccc23)o1)NCC1CC12CCCCC2 (configuration not stated)
14%	2%	COc1cccc(C2CCCCN(C)C2=O)c1 (configuration not stated)
-12%	-3%	CCN1CCCC1CNC(=O)c1cn(C)c2ccc(S(=O)(=O)N3CCCCCC3)cc2c1=O (configuration not stated)
11%	-4%	CCCCn1nnnc1SCC(=O)Nc1cccc(C)c1
x	-5%	COc1ccc(-n2c(=O)c(-c3cccc(C#N)c3)nc3cnc(N4CCNCC4)nc32)cc1
4%	-6%	COC(=O)C1C2C=CC3(CN(Cc4cccs4)C(=O)C13)O2 (configuration not stated)
12%	5%	Cn1ccsc1=NC(=O)c1ccc(Cl)c([N+](=O)[O-])c1
10%	-22%	CCc1c(-c2ccccc2)nc2nc(C)c(C)nn12
15%	-3%	CCOC(=O)c1c(C)[nH]c(C(=O)Cn2c(=O)c3c(ncn3CC)n(Cc3ccccc3)c2=O)c1C
-4%	-14%	CCO/C(C)=C1\C(=O)Nc2ccccc21
15%	-9%	CCCOc1ccc(C2=CSC3=NCCN23)cc1Cl
-3%	-11%	CC(=O)Oc1ccc(C(=O)Nc2cc(C)on2)cc1
5%	-22%	COc1cc(/C=N/N(C)C)ccc1OC(=O)c1cccs1
21%	-8%	Cc1cccnc1NC1CCCCC1
14%	43%[activator]	CC1(O)c2ccccc2C(=O)N1CCc1ccccc1F (configuration not stated)
6%	-8%	O=C(Nc1ccc2c(c1)ncn2C1CCCCC1)c1ccco1
-8%	-5%	O=C(O)Cn1cc(/C=C2\SC(=O)N(c3ccccc3)C2=O)c2ccccc21
4%	2%	COc1ccc(OC(=O)NCCc2ccccc2)cc1
-15%	4%	CC(C)Oc1ccc(C2c3c(oc4ccccc4c3=O)C(=O)N2CCCN2CCOCC2)cc1 (configuration not stated)
-9%	-6%	CCOCCCNc1nc(=S)[nH]c2cc(OC)c(OC)cc12
x	-13%	CN(C)c1ncc2ncc(=O)n(C[C@H]3CCCO3)c2n1
1%	5%	CCOc1ccc(S(=O)(=O)N2CCC(C(=O)NCC3CCCO3)CC2)cc1C (configuration not stated)
13%	1%	Cc1ccc(NC(=O)Cn2ncc3ccccc32)c(Cl)c1
4%	1%	O=C(Nc1ccc(Cl)cc1)N1CCOC12CCC1(CC2)OCCO1
1%	2%	COc1ccc(S(=O)(=O)NNC(=O)Nc2ccc(F)cc2F)c(OC)c1
3%	-5%	CCc1ccc(OCC(=O)Nc2cc(S(=O)(=O)CC)ccc2O)cc1
-19%	-7%	CCn1c2ccccc2c2cc(/C(C)=N/O)ccc21
-15%	-6%	Cc1sc2nc(COC(=O)c3cccc(OC(F)F)c3)[nH]c(=O)c2c1C
-1%	-8%	Cc1ccc(NC(=O)CCC(=O)NNC(=O)COc2ccccc2)cc1C
3%	-7%	COc1ccccc1-n1cnnc1SCC(=O)NC1CCS(=O)(=O)C1 (configuration not stated)
-10%	-6%	CC(C)(C)NC1=CC(=O)OC12CCCCC2
-4%	-3%	O=S(=O)(c1cccc(-c2nc3n(n2)Cc2ccccc2-3)c1)N1CCCC1
4%	-17%	COc1ccc(CSc2nnc(-c3ccncc3)n2C)cc1F
-14%	-4%	Cc1cc(OC(C)C(=O)N2CCN(c3ccc(F)cc3)CC2)c2c(C)cc(=O)oc2c1 (configuration not stated)
40µM*	-12%	COc1ccc2sc(/C=C/c3ccccc3O)[n+](C)c2c1
2%&-1%	-5%	CCN(CC)CCC(c1cc(OC)c(OC)c(OC)c1)c1c(OC)cc(OC)c2ccc(=O)oc12 (configuration not stated)
3%	-5%	C/C(=N\NC(=O)c1nnn(-c2nonc2N)c1C)c1ccc(OCc2ccccc2)cc1
6%	0%	Cc1ccccc1/C=C\c1nc(O)c([N+](=O)[O-])c(=O)[nH]1
-18%	-9%	COc1ccc(/C=C/C(=O)N(C)C2CCCCC2)cc1Br
9%	-4%	O=C(OCC(=O)c1ccccc1Cl)c1cnccn1
-8%	-4%	C=CCn1c(SCC(=O)Nc2ccc(F)cc2F)nnc1-c1cnccn1

Random excerpt: 2 entries already listed
FEN1 inh	GCN5L2 inh	canonical_smiles
-8%	-4%	C=CCn1c(SCC(=O)Nc2ccc(F)cc2F)nnc1-c1cnccn1
40µM*	-12%	COc1ccc2sc(/C=C/c3ccccc3O)[n+](C)c2c1

New compounds follow.
FEN1 inh	GCN5L2 inh	canonical_smiles
-3%	0%	O=[N+]([O-])c1cc(C(F)(F)F)cc([N+](=O)[O-])c1NCc1cccnc1
3%	-9%	N#Cc1cccnc1N1CCN(C(=O)COCC(=O)O)CC1
3%	-2%	Brc1ccc(OCCN2CCOCC2)cc1
-2%	-7%	COC(=O)Cc1ccc(NC(=S)NCc2cccc(OC)c2)cc1
-5%	-2%	C=CC[n+]1c(C)csc1Nc1ccc(C)cc1
-14%	-8%	O=C(CNC(=O)c1ccncc1)N/N=C/c1ccccc1[N+](=O)[O-]
-8%	-11%	CCOC(=O)c1c(NC(=O)C(F)(OC)C(F)(F)F)sc(C(=O)N2CCCCC2)c1C (configuration not stated)

Assay outcomes deposited in PubChem by National Center for Advancing Translational Sciences (NCATS).
